Sa ugtP lethal: growth inhibition of ugtP-null S. aureus, primary screen, RN4220 ugtP deletion, OD600 | 330,000 compounds, 0.54% hits | 16 h; some inactives read as strong as hits | growth inhibition, % (no concentration beside the values);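 active = z-score under -3 and OD600 up to 0.15 on both plates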;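 note: plate controls were untreated wells for no effect and antibiotic for full effect; wells of about 80 µL received 100 nL stock; the first replicate is given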
PrP 5UTR inh: inhibition of PrP 5' UTR reporter expression. cell-based PrP 5' UTR mRNA reporter, plate reader. inhibition, % (no concentration beside the values). 340,000 compounds, 0.35% hits;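 active = every replicate at 50% or more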;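 note: 0 = median of the neutral control wells; tested in H4 reporter cells; numbers are from one replicate; inactives centre near -14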
Autofluor counter: compound fluorescence in toxin protease inhibitor counterscreen | 360,000 compounds, 3.1% hits | compound autofluorescence counterscreen, microsphere flow cytometry; active compounds read high | AID 624483 | fluorescence intensity (no concentration beside the values);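 active = at least 3 SD above the mean of all compounds, about 16000 in these data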;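 note: 100 nL of 1 mM stock went into each well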
Mtb hypoxia rep: PubChem AID 1159583; M. tuberculosis hypoxia-regulated fluorescent reporter, fluorescence; fluorescence inhibition, % (test concentration not listed); 300,000 compounds, 0.1% hits;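 active = 35 to 45% if threefold the growth effect, above 45% if 1.5-fold the growth effect; inactive = the rest, general growth blockers included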;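 note: wells of about 50 µL received 100 nL stock; 0% = vehicle wells and 100% = reference inhibitor wells; whole bacteria with a GFP reporter of the hypoxia response; strong numbers were not always called active; many hits fall short of the cut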
BJeLR viability: MLPCN primary cell-based screen for lethality selective to Ras in HRASV12 cells; BJeLR (HRASV12) viability, CellTiter-Glo ATP luminescence, 48 h; reference of the scale not given here; AID 1554, 2009; inhibition, % (no concentration beside the values); 300,000 compounds, 0.17% hits;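 active = replicate mean above 50%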;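 note: 50 nL library stock added to about 25 µL; numbers are from one replicate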
Sa RN4220 lethal: growth inhibition of S. aureus RN4220, primary screen, OD600; 16 h; inhibition, % (test concentration not listed); 330,000 compounds, 0.33% hits; AID 1259311, 2017;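 active = z-score of -3 or lower and OD600 up to 0.18 on both plates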;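 note: plate controls were untreated cells for no effect and reference antibiotic for full effect; stock transfer was 100 nL into about 80 µL; one replicate is shown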
Mtb hypoxia rep growth: second read-out of Mtb hypoxia rep, no call of its own (marks repeat the call); growth inhibition, %; measured here: M. tuberculosis growth (absorbance);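 0% = vehicle and 100% = reference antibiotic; read after six days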
Starred values were filed as active, the others as inactive; . = no result given; & = joins results of further samples.

1	COc1ccc(OC)c(CNCCc2ccc(OC)c(OC)c2)c1
2	Cc1cc(N2CCOCC2)nc(-c2ccccc2O)n1
3	CC(CNS(=O)(=O)c1ccccc1)(c1ccccc1)N1CCOCC1 (stereo unspecified)
4	CCOC(=O)c1ccccc1NC(=O)Cc1ccc(OC)c(S(=O)(=O)N2CCOCC2)c1
5	Cc1ccc(-c2cc(C(=O)Nc3cccnc3)[nH]n2)c(O)c1C
6	CC(CNC(=O)Cn1cnc2c(OCc3ccccc3)ncnc21)c1ccccc1 (stereo unspecified)
7	O=C(NCCc1ccccc1)c1cc(=O)[nH]c2ccccc12
8	Clc1nc(-c2ccccc2)cc(-c2ccccc2)n1

assay / entry,1,2,3,4,5,6,7,8
Sa ugtP lethal,9,6,1,-3,-4,-1,.,11
PrP 5UTR inh,-49,3,-48,1,-63,-18,-13,-18
Autofluor counter,.,2222,2187,2779,3963,3793,3409,2051
Mtb hypoxia rep,-1,12,14,-3,7,-11,.,4
Mtb hypoxia rep growth,-7,6,6,0,1,12,.,0
BJeLR viability,6,-3,10,.,-5,.,16,4
Sa RN4220 lethal,3.2,1.2,13,1.7,-5.4,-4.4,.,4.7

9	CC(OC(=O)CCc1nc2ccccc2c(=O)[nH]1)C(=O)NC1CCCC1 (stereo unspecified)
10	COC(=O)C1=C(c2ccccc2OCc2ccccc2)CC2CCC1N2C(=O)NCc1ccc(F)cc1 (stereo unspecified)
11	Cn1c(=O)c([N+](=O)[O-])c(Oc2ccccc2)c2ccccc21
12	Cc1ccc(-n2c(C)cc(C=NNC(=O)CC(=O)NC(C)C)c2C)cc1
13	COc1ccc(-c2nc(CS(=O)CC(=O)NCCc3ccc(C)cc3)c(C)o2)cc1OC (stereo unspecified)
14	COc1ccc(Cl)cc1C(=O)NC(=S)Nc1ccccc1N1CCOCC1
15	O=C(O)C1(c2cccc(Cl)c2)CCC1
16	O=C(CC(c1ccccc1)(c1ccccc1)c1ccccc1)N[C@@H](Cc1ccc(O)cc1)C(=O)O

assay / entry,9,10,11,12,13,14,15,16
Sa ugtP lethal,1,12,6,0,-1,1,1,.
PrP 5UTR inh,6,.,-1,.,3,-3,-2,-12
Autofluor counter,2101,.,3242,.,5762,6420,4414,4076
Mtb hypoxia rep,12,7,3,3,12,3,.,.
Mtb hypoxia rep growth,2,-1,-5,14,-1,-6,.,.
BJeLR viability,-13,.,7,.,-6,-17,3,1
Sa RN4220 lethal,4.9,-3.3,0.5,1.5,3.2,0.6,5.1,.

17	N#Cc1cccc(NC(=O)Cc2ccsc2)c1
18	COCCN1C(=O)N(c2ccc(Cl)cc2)C(=O)C1CC(=O)Nc1cc(OC)cc(OC)c1 (stereo unspecified)
19	Cc1ccccc1NC(=O)COC(=O)Cc1cccc(C(F)(F)F)c1
20	COc1ccc(CCN(C)C2CCCN(C(=O)CCSC)C2)cc1OC (stereo unspecified)
21	CC(C)C(NC(=O)c1ccccc1NC(=O)C(C)(C)C)C(=O)N1CCOCC1 (stereo unspecified)
22	O=S(=O)(NNc1nccc(C(F)(F)F)n1)c1cccc(Cl)c1Cl
23	CCOCCc1nnc(NC(=O)C(CC)c2ccccc2)s1 (stereo unspecified)
24	Cc1ccc(C2CC2c2n[nH]c(=S)n2-c2ccc(C)cc2)cc1 (stereo unspecified)

assay / entry,17,18,19,20,21,22,23,24
Sa ugtP lethal,14,13,1,0,12,5,5,31
PrP 5UTR inh,-9,-10,-22,-29,-28,-9,-14,-16
Autofluor counter,3400,3754,2727,3640,5949,4513,16622*,24709*
Mtb hypoxia rep,-11,13,16,2,4,1,2,12
Mtb hypoxia rep growth,-12,13,3,14,5,-6,13,6
BJeLR viability,-1,-13,-4,-4,.,-2,1,0
Sa RN4220 lethal,2.9,3.6,3.2,-2.5,8.2,3.8,-2.0,-0.8

25	COc1ccc(C(=O)Nc2ccc3[nH]ncc3c2)cc1OC
26	C=CCC1C=C(C)CC(CC=C)N1 (stereo unspecified)
27	COC(=O)c1ccc(S(=O)(=O)N2CCN(C(c3ccccc3)c3ccccc3)CC2)n1C
28	O=C1c2ccccc2NC(c2c(Cl)cccc2Cl)N1Cc1ccccc1 (stereo unspecified)
29	CCOC(=O)CNC(=S)N(CCCN1CCCCCC1)Cc1cccs1
30	CCN(CC)C(=O)CSc1nc2cc3c(cc2c(=O)n1Cc1ccco1)OCO3
31	Cc1cccc(NC(=O)C(C)Sc2nc3nc(C)cc(C)n3n2)c1 (stereo unspecified)
32	Cc1cc(C)nc(SCC(=O)NC2=NN=C(c3ccc(Br)cc3)CS2)n1

assay / entry,25,26,27,28,29,30,31,32
Sa ugtP lethal,5,7,-5,-27,5,3,5,9
PrP 5UTR inh,-10,-27,1,-8,-1,3,-14,-28
Autofluor counter,.,6268,4628,2210,2505,4256,3972,24625*
Mtb hypoxia rep,2,2,-4,.,14,6,12,5
Mtb hypoxia rep growth,-3,6,13,.,0,7,6,9
BJeLR viability,1,2,-8,8,2,-3,.,8
Sa RN4220 lethal,2.2,3.2,-4.3,4.0,3.2,3.4,3.7,-2.6

Entries of single compounds, quoted from the list.
`Cc1cc(C)nc(SCC(=O)NC2=NN=C(c3ccc(Br)cc3)CS2)n1` is entered as Sa ugtP lethal: 9; PrP 5UTR inh: -28; Autofluor counter: 24625*; Mtb hypoxia rep: 5; Mtb hypoxia rep growth: 9; BJeLR viability: 8; Sa RN4220 lethal: -2.6
`CCN(CC)C(=O)CSc1nc2cc3c(cc2c(=O)n1Cc1ccco1)OCO3` is entered as Sa ugtP lethal: 3; PrP 5UTR inh: 3; Autofluor counter: 4256; Mtb hypoxia rep: 6; Mtb hypoxia rep growth: 7; BJeLR viability: -3; Sa RN4220 lethal: 3.4
`COc1ccc(C(=O)Nc2ccc3[nH]ncc3c2)cc1OC` is entered as Sa ugtP lethal: 5; PrP 5UTR inh: -10; Autofluor counter: .; Mtb hypoxia rep: 2; Mtb hypoxia rep growth: -3; BJeLR viability: 1; Sa RN4220 lethal: 2.2

Continued.
33	COc1cc(NC(=O)CCc2c(C)noc2C)c(Cl)cc1C(=O)O
34	CC(=NNC(=S)Nc1c(C)cccc1C)c1cc2ccccc2o1
35	CCOC(=O)C[C@H]1c2cc(C(F)(F)F)ccc2S(=O)(=O)N1C(C)C
36	CCOC(=O)CNC(=O)Nc1ccccc1C(=O)OC
37	Cc1cc(Br)c(NC(=O)c2ccccc2[N+](=O)[O-])cc1C
38	NS(=O)(=O)c1ccc(-c2ccc(C=NNC(=O)c3ccccc3O)o2)cc1
39	CCOC(=O)c1ccccc1OCc1cc(/C=N/n2cncn2)ccc1OC
40	CCN1C(=O)c2ccccc2S(=O)c2ccc(C(=O)N3CCCCCC3)cc21 (stereo unspecified)

assay / entry,33,34,35,36,37,38,39,40
Sa ugtP lethal,-2,2,.,2,3,-4,.,-10
PrP 5UTR inh,-27,.,-21,0,-4,.,-2,-16
Autofluor counter,3762,.,3956,4106,2621,.,3768,5937
Mtb hypoxia rep,5,-7,.,.,-1,5,.,3
Mtb hypoxia rep growth,2,-1,.,.,-6,1,.,4
BJeLR viability,.,.,9,-3,-6,.,0,7
Sa RN4220 lethal,3.1,1.7,.,1.7,7.1,0.1,.,-9.5

41	CCOC1OC(C(=O)NC2CC2)=CC(C)C1CCCO (stereo unspecified)
42	Cc1cccc(-n2c(O)c(/C=N/N3CCOCC3)c(=O)[nH]c2=S)c1
43	Cc1cc(C)c(S(=O)(=O)c2ccc(F)cc2C)c(Cl)n1
44	CC(CC(=O)Nc1ccc(C)c(Cl)c1)=NNC(=O)Cc1ccccc1
45	O=C(CSc1nnnn1-c1ccccc1)c1ccco1
46	O=[N+]([O-])c1cc(/C=N/O)ccc1Oc1cccc(Cl)c1
47	O=C(c1cccc(F)c1)N1CCc2ccccc21
48	COc1cccc(-c2cc(C(=O)Nc3cnn(Cc4ccccc4C)c3)no2)c1

assay / entry,41,42,43,44,45,46,47,48
Sa ugtP lethal,2&-8,11,-6,1,11,.,3,3
PrP 5UTR inh,.,-16,-22,.,-34,-9,-12,-22
Autofluor counter,.,2153,3748,.,2859,2542,10368,10582
Mtb hypoxia rep,-1&8,4,9,8,-8,.,5,-3
Mtb hypoxia rep growth,-1&13,6,4,1,18,.,7,-1
BJeLR viability,.,2,0,.,2,4,1,6
Sa RN4220 lethal,6.1&2.7,6.3,2.1,5.8,-0.4,.,2.8,6.5

Another view of three compounds above.
Results follow in this order: Sa ugtP lethal, PrP 5UTR inh, Autofluor counter, Mtb hypoxia rep, Mtb hypoxia rep growth, BJeLR viability, Sa RN4220 lethal
#43 Cc1cc(C)c(S(=O)(=O)c2ccc(F)cc2C)c(Cl)n1
 : -6, -22, 3748, 9, 4, 0, 2.1
#44 CC(CC(=O)Nc1ccc(C)c(Cl)c1)=NNC(=O)Cc1ccccc1
 : 1, ., ., 8, 1, ., 5.8
#45 O=C(CSc1nnnn1-c1ccccc1)c1ccco1
 : 11, -34, 2859, -8, 18, 2, -0.4

New compounds follow.
49	CN(CC(=O)Nc1ccccc1Cl)C(=O)c1cc(=O)[nH]c2ccccc12
50	COc1ccc(NC(=O)CSc2nccn2-c2ccccc2)c(OC)c1
51	CCOC(=O)c1c(NC(=O)C2CCCO2)sc2c1CCC2 (stereo unspecified)
52	O=C(NCc1ccncc1)c1ccc(OCc2ccccc2)cc1
53	O=c1oc2ccccc2c2c1ccc1ccccc12
54	O=C(COc1ccc(Cc2ccccc2)cc1)c1ccc(F)cc1
55	CN(C)CCCN(C(=O)c1cccc(N2C(=O)CCC2=O)c1)c1nc2cc3c(cc2s1)OCO3
56	Cc1cc(CN2CCC(N3CCC(C(=O)NC4CC4)CC3)CC2)cc(C)c1O

assay / entry,49,50,51,52,53,54,55,56
Sa ugtP lethal,8,5,7,.,4,44,0,9
PrP 5UTR inh,14,-14,-17,-16,-27,-37,-22,-17
Autofluor counter,4564,2559,3877,3990,3516,2380,5147,5978
Mtb hypoxia rep,14,.,.,.,3,10,12,2
Mtb hypoxia rep growth,-9,.,.,.,3,7,4,-1
BJeLR viability,3,-3,1,-13,.,11,-2,0
Sa RN4220 lethal,5.7,3.5,3.5,.,6.6,-2.6,-0.1,2.9

57	COc1ccc(-c2nc3ccc(C(=O)NCC(OC)OC)cc3nc2-c2ccc(OC)cc2)cc1
58	CCCCNC(=O)OC(C)CNC(=O)Oc1cccc(C)c1 (stereo unspecified)
59	COc1ccc(C(=O)NC(Nc2ccc(C)cc2)C(Cl)(Cl)Cl)cc1 (stereo unspecified)
60	Cc1ccc(C)c(CN2CCC(CNC(=O)Nc3ccc(Br)cc3F)CC2)c1
61	CCOc1cc(C=NNC(=O)c2cc(-c3ccccc3)nc3ccccc23)ccc1O
62	Cc1ccc(OC(=O)c2ccc(N3CCOCC3)c([N+](=O)[O-])c2)cc1
63	C(=N\n1cnnc1)/c1ccccn1
64	CN(Cc1ccccn1)C(=O)C1CCC(=O)N(Cc2cccc(F)c2)C1 (stereo unspecified)

assay / entry,57,58,59,60,61,62,63,64
Sa ugtP lethal,8,-1,-15,3,-1,13,.,15
PrP 5UTR inh,-18,-7,-29,-17,.,-41,-20,-15
Autofluor counter,4315,2517,11252,4580,.,19491*,10185,5854
Mtb hypoxia rep,12,12,5,5,-12,7,.,-7
Mtb hypoxia rep growth,12,10,-2,6,-2,14,.,1
BJeLR viability,-12,-6,2,5,.,10,5,13
Sa RN4220 lethal,3.8,6.5,4.2,0.5,2.6,2.7,.,8.2

65	O=C1CN(C(=O)/C=C/c2cccc(Cl)c2)c2ccccc2N1
66	O=C(c1ccco1)N1CCN(C(=O)c2cnn(-c3ccc(Cl)cc3)c2C2CCNCC2)CC1
67	COC(=O)C1=C(c2ccc(F)cc2OCc2ccccc2)CC2CCC1N2C(=O)NCc1ccc(C(F)(F)F)cc1 (stereo unspecified)
68	CC(C)c1ccc(NC(=O)COC(=O)c2c[nH]c(=O)[nH]c2=O)cc1
69	O=C(NCCc1ccc(F)cc1)C1CCCO1 (stereo unspecified)
70	CCOc1ccccc1CNC(=O)c1ccc(Sc2ccc(Cl)cc2)c(NC(C)=O)c1

assay / entry,65,66,67,68,69,70
Sa ugtP lethal,.,4,6,.,-1,-10
PrP 5UTR inh,-10,-8,.,4,-4,-18
Autofluor counter,3368,5411,.,7309,4118,2221
Mtb hypoxia rep,.,8,10,.,-3,4
Mtb hypoxia rep growth,.,-2,12,.,-1,17
BJeLR viability,8,5,.,-3,8,6
Sa RN4220 lethal,.,2.5,-13,.,3.8,-6.9

Compounds as they come. About 4% of those tested had a hit in this group.
